# Bioassay records as filed in PubChem.
# NS1 function inh = qHTS Assay for Inhibitors of Influenza NS1 Protein Function | S. cerevisiae slowed by influenza A NS1, growth recovery by OD600 | Potency, µM (series often up to 46.1 µM), for inactives: top-dose activity, positive = more growth | actives 0.4% (n = 270,000) | AID 2326, 2010; also: actives are rising curves; nearly all actives have a fitted effect of over 50% in size
#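 In this qHTS, NS1 from influenza A is expressed in budding yeast, where it slows growth. Cells are switched from glucose to 2% galactose medium (pH 6.0, -URA), treated with compound, and growth recovery is read at OD600.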
# 2A StopGo = High Throughput Screening for Foot and Mouth Disease Virus Antivirals; human cells with a luciferase reporter of 2A StopGo recoding; control for the full effect not named in the record; AID 1159524, 2015; actives 1.2% (n = 410,000); Potency, µM (doses to about 57.9 µM), for inactives: top-dose signal change, negative = less light; active = well fitted falling curve with a large enough effect; inconclusive = small, poorly fitted or top-dose-only effect; inactive = no such curve, though single readings can be large or run the other way; tested in HEK293T cells; also: % is scaled to controls: 0 for no effect and ±100 for the full control effect; nearly all actives have a fitted effect of over 45% in size; luciferase light after 4 h
# Lassa entry inh = qHTS for Inhibitors of binding or entry into cells for Lassa Virus; Lassa virus pseudotype entry inhibition, cell reporter; control for the full effect not named in the record; Potency, µM (top dose mostly 37.9 µM), for inactives: at the highest dose activity change, negative = inhibition, most hits filed as inhibitors; actives 1.2% (n = 300,000); active means well fitted inhibition curve with a large enough effect; inconclusive means small, poorly fitted or top-dose-only effect, or effect the other way; inactive means flat fitted curve, though single readings scatter; tested in HEK293 cells; also: % is scaled to controls: 0 for no effect and ±100 for the full control effect; nearly all actives have a fitted effect of over 50% in size; luciferase read-out
# SARS PLP yeast = qHTS of Yeast-based Assay for SARS-CoV PLP | S. cerevisiae expressing SARS-CoV PLpro, growth rescue; control for the full effect not named in the record | Potency, µM (series often up to 32.9 µM), for the others: at the top dose activity, positive = growth rescue | actives 0.19% (n = 330,000) | AID 485353, 2010; also: 0% is about no effect; nearly all actives have a fitted effect of over 55% in size; growth read by luminescence after 48 h
# RE007 growth inh = qHTS Assay for Inhibitors of the HIV-1 protein Vpr; actives 0.21% (n = 360,000); AID 651644, 2012; Potency, µM (titrated, usually from 92.2 µM), without a hit: at the top dose activity change, negative = less growth; S. pombe RE007 Vpr strain, BacTiter-Glo ATP luminescence, 24 h; control for the full effect not named in the record; active = well fitted falling curve with a large enough effect; inconclusive = small, poorly fitted or top-dose-only effect; inactive = no such curve, though single readings can be large or run the other way;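 also: % is scaled to controls: 0 for no effect and ±100 for the full control effect; nearly all actives have a fitted effect of over 50% in size; the assay follows cell death caused by Vpr and the record does not say whether a fall means rescue or toxicity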
#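 Fission yeast strain RE007, carrying one chromosomally integrated HIV-1 vpr copy, was seeded at OD 0.01 in PMG+AL medium with 23 nL pinned compound. After 24 h at 30 °C and 99% humidity, viability was read by BacTiter-Glo luminescence.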
# Cruzain Triton = qHTS Assay for Promiscuous and Specific Inhibitors of Cruzain (with detergent) | Cruzipain (Trypanosoma cruzi), P25779 | purified cruzain, Z-FR-AMC fluorescence, 0.01% Triton | Potency, µM, inactives show max response, negative = inhibition, most hits filed as inhibitors | actives 0.43% (n = 200,000); active = well fitted curve in the direction sought with a large enough effect; inconclusive = small, poorly fitted or top-dose-only effect, or another doubt; inactive = no such curve, though single readings can be large; an effect the other way counts as inactive or inconclusive;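 also: plate controls were neutral wells for no effect and buffer without enzyme for full effect; nearly all actives have a fitted effect of over 40% in size; top concentration of the series not given in the record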
# Target sequence (P25779 123-467 limits assumed): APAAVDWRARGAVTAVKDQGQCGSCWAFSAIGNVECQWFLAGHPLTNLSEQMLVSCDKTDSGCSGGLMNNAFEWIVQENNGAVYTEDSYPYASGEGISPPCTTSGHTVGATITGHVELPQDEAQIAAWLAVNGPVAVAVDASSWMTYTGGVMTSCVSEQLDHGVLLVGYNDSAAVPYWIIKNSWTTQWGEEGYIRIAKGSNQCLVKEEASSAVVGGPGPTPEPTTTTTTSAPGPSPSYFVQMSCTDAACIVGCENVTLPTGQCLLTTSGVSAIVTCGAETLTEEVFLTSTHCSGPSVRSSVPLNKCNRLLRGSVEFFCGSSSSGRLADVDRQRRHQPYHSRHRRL
#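 Steps: dispense cruzain (1.5 nM final) in acetate buffer pH 5.5 with DTT and 0.01% Triton X-100; pin-transfer compounds; incubate 15 min RT; add Z-FR-AMC (2 uM final); read fluorescence every 30 s, using the 60 s intensity change.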
# Cruzain inh noDet = qHTS Assay for Promiscuous and Specific Inhibitors of Cruzain (without detergent); Potency, µM, inactives show max response, negative = inhibition, hits mostly inhibitors; actives 2.3% (n = 200,000); Cruzipain (Trypanosoma cruzi), P25779; purified cruzain, Z-FR-AMC fluorescence, no detergent; AID 1476, 2009; active = well fitted curve in the direction sought with a large enough effect; inconclusive = small, poorly fitted or top-dose-only effect, or another doubt; inactive = no such curve, though single readings can be large; an effect the other way counts as inactive or inconclusive;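 also: plate controls were enzyme without inhibitor for no effect and buffer without enzyme for full effect; nearly all actives have a fitted effect of over 40% in size; top concentration of the series not given in the record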
#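 Purified cruzain at 1.5 nM, pre-incubated 15 min with compound at room temperature in 100 mM sodium acetate pH 5.5, 5 mM DTT, 0.00005% Triton X-100. Reaction started with 2 uM Z-FR-AMC; AMC fluorescence increase over 60 s gives rate.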
# Marburg entry inh = qHTS for inhibitors of binding or entry into cells for Marburg Virus; Marburg virus pseudotyped entry inhibition, cell reporter; control for the full effect not named in the record; about a third of the inactives were read at about 46 µM; Potency, µM (doses to about 37.8 µM), for the others: top-dose activity change, negative = inhibition, most hits filed as inhibitors; actives 1.8% (n = 300,000); active = well fitted inhibition curve with a large enough effect; inconclusive = small, poorly fitted or top-dose-only effect, or effect the other way; inactive = flat fitted curve, though single readings scatter; tested in HEK293 cells; about a fifth of its hits are not listed in these tables; also: % is scaled to controls: 0 for no effect and ±100 for the full control effect; luciferase read-out
# * hit, by the source's call; ? = inconclusive; nt = no result given; & = joins results of further samples; [ ] = another dose, or the depositor's remark. Unless noted, calls follow the shape of the dose curve; as a rule, active means well fitted rising curve with a large enough effect; inconclusive means small, poorly fitted or top-dose-only effect; inactive means no such curve, though single readings can be large or run the other way. Potency is read from the fitted curve at half-maximal effect.
SMILES,NS1 function inh,2A StopGo,Lassa entry inh,SARS PLP yeast,RE007 growth inh,Cruzain Triton,Cruzain inh noDet,Marburg entry inh
O=C(Nc1c2c(nn1-c1ccccc1)CS(=O)C2)c1ccc2c(c1)OCO2 (centres undefined),-6.8%,-18.9%,14.0%,18.3%,17.0%,nt,nt,-5.5%
CCn1c(=O)n(-c2cccc(Cl)c2)c(=O)c2sc3ccccc3c21,nt,6.7%,?,nt,nt,1.2%,-6.2%,-3.1%[46.1 µM]
CCOCCn1c(CCCO)nc2ccccc21,4.6%,1.6%,-4.5%,-1.6%,-3.4%,3.0%,4.0%,9.8%[46.1 µM]
CN1C=CC=C/C1=C1\SC(=S)N(c2ccccc2)C1=O,2.2%,7.3%,16.4%,-0.8%,-4.4%,-8.6%,-16.2%,?
Cc1cccc(NC(=S)Nc2cccc(C)n2)n1,-3.0%,10.6%,24.1%[46.1 µM],2.9%,-6.4%,nt,nt,?
Cn1c(SCc2ccccc2Cl)nnc1-c1cnccn1,-18.5%,66.3%[activator],?,-9.3%,3.0%,0.2%,3.5%,8.1%
CC(C)(C)OC(=O)N1CCN(c2ccc(CNC(=O)c3ccc(Cl)cc3)cc2)CC1,24.1%,25.1µM*,?,-0.8%,-0.8%[3.69 µM],-0.6%,4.3%,?
CCOC(=O)c1c(NC(=O)c2nn(CC)cc2Br)c(C#N)nn1-c1ccccc1,-30.8%,-22.4%,-27.3%[14.3 µM],5.0%,11.4%,-3.8%,7.7%,?
CN(Cc1ccco1)S(=O)(=O)c1nnc(NC(=O)c2ccc(F)cc2)s1,9.8%,5.6%,nt,2.0%,-4.4%,nt,nt,nt
O=[N+]([O-])c1ccccc1NCc1ccc(Cl)cc1,-40.4%,16.1%,1.5%,-9.4%,?,0.3%,-4.3%,-23.5%
COc1ccc(S(=O)(=O)Nc2cccc(-c3ccc(N4CCC(C)CC4)nn3)c2)c(OC)c1,nt,-3.1%,-29.1%[46.1 µM],nt,nt,-5.9%,-0.5%,nt
CC1CCC(NC(=O)C2c3ccccc3C(=O)N2Cc2ccc3c(c2)OCO3)CC1 (centres undefined),-16.0%,-10.1%,?,0.3%,-15.2%,nt,nt,?
Cc1cc(NC(=O)CN2C(=O)NC(C)(c3ccccc3)C2=O)no1 (centres undefined),0.6%,8.1%,25.9%,28.4%,6.6%,1.2%,5.9%,12.5%
O=[N+]([O-])c1ccc(N2CCCNCC2)c2ncccc12,1.4%,-9.2%,nt,-1.0%,-9.7%,nt,nt,nt
O=C(COC(=O)c1ccncc1)Nc1cccc(Cl)c1,-0.5%,1.0%,15.2%,8.2%,-24.3%,-5.1%,-20.9%,9.8%
COc1ccc(S(=O)(=O)N(NC2=NS(=O)(=O)c3ccccc32)C(=O)C(C)C)cc1,-3.1%,-9.7%,nt,-1.7%,2.1%,nt,nt,nt
O=C(CCCNS(=O)(=O)c1cccc2nsnc12)NCc1ccccc1,-6.0%,-8.1%,10.7%,6.6%,21.1%,3.5%,-0.7%,-2.2%
COc1cc(NC(=O)Cn2nnc(-c3ccccc3N)n2)cc(OC)c1,1.0%,nt,4.2%,5.8%,4.9%,-5.8%,-3.4%,-7.1%
COC(=O)c1ccc(NC(=O)C2CC(=O)N(c3cc(C)ccc3C)C2)cc1 (centres undefined),-16.2%,-15.4%,12.0%,3.4%,-5.5%,-1.7%,5.3%,?
CCn1c(C)cc(/C=C2\NC(=O)N(CC(=O)Nc3ccc(F)cc3)C2=O)c1C,?,0.8%,-5.4%,0.0%,13.0%,nt,nt,0.5%[46.1 µM]
COc1cc(N/C(=N/S(=O)(=O)c2ccccc2)c2ccccc2)ncn1,-15.9%,36.1%[activator],-4.0%,nt,11.1%,8.8%,-0.2%,?
COc1ccc(C2(CNC(=O)C(=O)Nc3ccccc3C)CCCC2)cc1OC,nt,?,?,nt,nt,-4.0%,21.2%,-12.2%[46.1 µM]
Oc1ccccc1-c1nc(NCC2CCCO2)c2ccccc2n1 (centres undefined),-103.7%,?,11.7%,-25.6%,?,-12.6%,-16.4%,-23.1%
CC(C)c1ccc(CN(C(=O)c2ccco2)C2CCS(=O)(=O)C2)cc1 (centres undefined),2.1%,-19.2%,-18.9%,-0.9%,8.0%,nt,nt,18.5%[46.1 µM]
COc1ccc(CNC(=O)CSc2nnc3c(n2)[nH]c2ccc(F)cc23)cc1,-12.9%,-9.5%,18.5%,0.2%,19.5%,nt,nt,4.1%[46.1 µM]
CC(=O)Nc1ccc(NC(=O)c2nc(S(=O)(=O)Cc3ccc(F)cc3)ncc2Cl)cc1,nt,31.6µM*,?,nt,nt,-4.0%,6.6%,?
COc1ccc(C2=CSC3=NCCN23)cc1F,-4.4%,0.0%,9.6%,-5.4%,-10.4%,-0.4%,2.4%,0.1%
Cc1ccc(S(=O)(=O)Cn2nnnc2C(C(C)C)N2CCC(C(N)=O)CC2)cc1 (centres undefined),-9.7%,-17.2%,?,-6.7%,11.6%,nt,nt,-4.4%[46.1 µM]
O=C(COc1ccc(S(=O)(=O)Nc2ccccc2)cc1)NCc1ccncc1,6.2%,11.4%,2.59µM*,4.6%,-4.9%,nt,nt,?
COC(=O)c1ccc(N2C(=O)CC(N(C)Cc3ccccc3)C2=O)cc1 (centres undefined),-135.4%,-24.6%,-4.0%,-12.8%,6.31µM*,3.2%,0.3%,0.3%
COCCn1cnc2c1c(=O)n(CC(=O)c1ccc3c(c1)OCCO3)c(=O)n2Cc1ccccc1,?,-0.5%,-2.4%,-1.3%,1.0%,nt,nt,12.9%&12.9%
COc1ccc(C)cc1NC(=O)CN(c1ccccc1F)S(C)(=O)=O,-1.7%,-8.1%,-12.8%,3.8%,-4.5%,4.6%,2.8%,?
CCOC(=O)c1cc2c(=O)n3ccccc3nc2n(Cc2ccco2)c1=NC(=O)c1ccccc1Br,nt,57.8%[activator],9.1%[46.1 µM],nt,nt,-6.6%,-12.4%,-12.4%[46.1 µM]
CCCCn1c(N)c(N(CCOC)C(=O)COC(=O)C(C)Oc2ccc(Cl)cc2)c(=O)[nH]c1=O (centres undefined),nt,-11.5%,5.7%,28.2%,-3.4%,nt,nt,19.2%
CN(Cc1cn(C)nc1-c1ccccc1F)CC1CCN(Cc2ccccc2)CC1,-3.1%,-23.9%,nt,1.2%,-1.8%,nt,nt,nt
CNC(=O)C1CCC(Cn2c(=O)c3sccc3n(CC(=O)N3CCCC(C)C3)c2=O)CC1 (centres undefined),nt,-0.5%,?,nt,nt,-2.2%,-1.3%,nt
COc1ccc2oc(=O)c(C(=O)Nc3cccc(C(=O)O)c3)cc2c1,nt,?,3.8%[46.1 µM],nt,nt,-4.2%,3.7%,2.82µM*
COC(=O)c1cc(C(=O)OC)n(Cc2ccc(Br)cc2)n1,-14.3%,17.1%,?,-9.8%,-11.1%,0.4%,-4.7%,-5.0%
CC(C)c1ccc(S(=O)(=O)NCc2ccc3c(c2)CCN3C(=O)c2ccccc2)cc1,nt,-19.4%,?,nt,nt,-3.1%,-16.5%,nt
CCNC(=S)N1CCn2c(nc3ccccc32)C1,11.5%,2.2%,8.7%,-16.9%,15.0%,0.2%,-6.3%,-3.3%
Cc1ccc(-c2nnc(NC(=O)c3ccco3)s2)cc1,-37.9%,0.0%,?,-0.6%,-6.4%,nt,nt,22.9%[46.1 µM]
COc1cc(CNCCc2ccc(S(N)(=O)=O)cc2)ccc1OCC(=O)NC(C)(C)C,-6.3%,0.0%,29.5%,19.8%,-12.9%,1.4%,-6.6%,?
Cn1c(=O)oc2cc(S(=O)(=O)N3CCCC(C(=O)NCCc4ccccc4)C3)ccc21 (centres undefined),nt,-19.1%,-0.2%[46.1 µM],nt,nt,0.0%,-7.2%,0.2%[46.1 µM]
Cc1ccc(N(C)S(=O)(=O)c2cc3c(cc2C)NC(=O)CO3)cc1,-7.5%,0.0%,nt,-7.3%,9.8%,nt,nt,nt
O=S(=O)(/N=C(/Nc1cc(N2CCOCC2)ncn1)c1ccc(F)cc1)c1ccccc1,-0.3%,-24.7%&10.1%,13.8%&5.1%,22.1%,-6.6%&-9.1%,4.5%,-7.6%,19.3%&1.5%
O=S(=O)(NCc1csc(-c2cccnc2)n1)c1ccc(Br)cc1,-32.8%,17.3%,nt,-5.5%,13.9%,nt,nt,nt
O=C(CN1C(=O)NC2(CCCC2)C1=O)Nc1ccc(F)c(Cl)c1,1.6%,-2.5%,-5.7%[46.1 µM],1.8%,4.7%,nt,nt,6.1%[46.1 µM]
CCC(=O)N1CCc2cc(S(=O)(=O)NCCC(=O)Nc3ccc(C)cc3C)ccc21,nt,-12.4%,3.1%[46.1 µM],nt,nt,-1.4%,7.3%,6.3%[46.1 µM]
CC1(C)CC(=O)C/C(=N/NC(=O)c2ccc(-c3ccccc3)cc2)C1,nt,?,?,-1.0%,15.3%,nt,nt,?
O=C(CCCc1ccccc1)NC1CC(=O)N(c2cccc(F)c2)C1 (centres undefined),nt,-8.6%,-18.1%[46.1 µM],nt,nt,2.9%,8.4%,nt
O=C(CC1SC(=Nc2ccccc2)N(CCCO)C1=O)Nc1ccc(Cl)cc1 (centres undefined),-69.6%,14.1µM*,?,-16.6%,10.6%,-13.3%,?,?
CCOC(=O)C(CCCP(=O)(c1ccccc1)c1ccccc1)(NC(C)=O)C(=O)OCC,-7.0%,6.7%,?,-0.2%,-11.1%,nt,nt,18.2%[46.1 µM]
C(=C\c1nc(-c2ccncc2)no1)/c1ccccc1,0.8%,-7.2%,?,0.0%,-11.1%,nt,nt,?
COc1cc(C2C(C(=O)c3ccco3)=C(O)C(=O)N2c2cc(C)on2)cc(Br)c1O (centres undefined),-8.1%,9.0%,-1.2%,4.3%,-2.4%,0.3%,-4.3%,?
